High-throughput results: PubChem, several laboratories
Bead autofluor: flagged as autofluorescent in microsphere protease counterscreen; 360,000 tested, 3.1% active; fluorescence intensity (no concentration beside the values); AID 624483; compound autofluorescence counterscreen, microsphere flow cytometry; active compounds read high;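 active = at least 3 SD above the mean of all compounds, about 16000 in these data; inconclusive = too few beads counted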;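 note: 100 nL of 1 mM stock went into each well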
Sa RN4220 lethal: S. aureus RN4220 growth inhibition. OD600, 16 h. 330,000 tested, 0.33% active. inhibition, % (concentration not given with the values);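 active = z-score of -3 or lower and OD600 up to 0.18 on both plates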;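 note: plate controls were untreated cells for no effect and reference antibiotic for full effect; stock transfer was 100 nL into about 80 µL; one replicate is shown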
Mtb hypoxia rep: inhibitors of hypoxia-regulated fluorescent reporter in Mycobacterium tuberculosis. M. tuberculosis hypoxia-regulated fluorescent reporter, fluorescence. fluorescence inhibition, % (no concentration beside the values). 300,000 tested, 0.1% active;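 active = 35 to 45% if threefold the growth effect, above 45% if 1.5-fold the growth effect; inactive = the rest, general growth blockers included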;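 note: wells of about 50 µL received 100 nL stock; 0% = vehicle wells and 100% = reference inhibitor wells; whole bacteria with a GFP reporter of the hypoxia response; strong numbers were not always called active; many hits fall short of the cut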
Sa ugtP lethal: growth inhibition of S. aureus ugtP deletion strain; S. aureus RN4220 ugtP deletion, OD600 growth, 16 h; some inactives read as strong as hits; growth inhibition, % (no concentration beside the values); 330,000 tested, 0.54% active;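 active = z-score under -3 and OD600 up to 0.15 on both plates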;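 note: plate controls were untreated wells for no effect and antibiotic for full effect; wells of about 80 µL received 100 nL stock; the first replicate is given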
BJeLR viability: kills HRASV12-expressing BJeLR cells. BJeLR (HRASV12) viability, CellTiter-Glo ATP luminescence, 48 h; reference of the scale not given here. inhibition, % (no concentration beside the values). 300,000 tested, 0.17% active. AID 1554;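 active = replicate mean above 50%; inconclusive = above 50% but judged a plate artefact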;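 note: 50 nL library stock added to about 25 µL; numbers are from one replicate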
PrP UTR inh: suppresses PrP 5' UTR mRNA reporter expression; inhibition, % (no concentration beside the values); 340,000 tested, 0.35% active; cell-based PrP 5' UTR mRNA reporter, plate reader;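 active = every replicate at 50% or more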;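 note: 0 = median of the neutral control wells; tested in H4 reporter cells; numbers are from one replicate; inactives centre near -14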
Mtb hypoxia rep growth: recorded beside Mtb hypoxia rep, whose call it bears; growth inhibition, %; measured here: M. tuberculosis growth (absorbance);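 0% = vehicle and 100% = reference antibiotic; read after six days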
Starred values were filed as active, the others as inactive; ? = inconclusive; . = no result given; & = joins results of further samples.

SMILES	Bead autofluor	Sa RN4220 lethal	Mtb hypoxia rep	Mtb hypoxia rep growth	Sa ugtP lethal	BJeLR viability	PrP UTR inh
Clc1ccc(-c2nnc(CSc3nnc(-c4cccs4)o3)o2)cc1	2266	3.8	.	.	-10	-5	-29
O=C(NCC1CC1)c1ccc2c(c1)S(=O)(=O)c1cc(Cl)ccc1C2=O	3647	23	11	11	17	.	-8
CC(=O)NCC(=O)Nc1ccc(Br)cc1C(=O)c1ccccc1	6230	1.4	-3	0	2	10	-16
CN(CC(=O)Nc1cccc(F)c1)CC(=O)Nc1ccc(Cl)cc1[N+](=O)[O-]	3937	29	18	11	26	3	-24
Cc1c(N(C)C)nc2ccccc2c1N	3604	1.7	.	.	14	2	-4
COc1ccc(C(OCC(O)CN(C)C2CCCCC2)c2ccc(OC)cc2)cc1 (stereo not given)	5718	1.4	0	7	2	-4	-10
O=C(CSc1nc(=O)n2cc(Cl)ccc2n1)NCCc1ccccc1	?	1.7	10	12	3	1	-14
COc1cc(OC)c(OC)cc1/C=C1\CC(C)C/C(=C\c2cc(OC)c(OC)cc2OC)C1=O (stereo not given)	4112	2.8	-4	2	1	1	17
O=C(CS(=O)(=O)Cc1ccccc1)Nc1ccc(Cl)cn1	3056	-2.4	6	0	5	4	0
Cc1oc(-c2cccc(Cl)c2)nc1CN1CCCC(C(=O)NCc2ccco2)C1 (stereo not given)	9093	5.8	10	-1	2	-6	-16
CCOc1ccc(CNc2nnnn2C)cc1	4041	1.1	7	-1	3	-5	-28
CCc1ccc(C(=O)Nc2cc(C)ccc2F)s1	3929	-0.3	6	3	5	7	-35
COc1ccc(CCNC(=O)CSc2nc3ccccc3c3nc(CCN4CCCCC4)nn23)cc1OC	4453	4.5	14	14	6	4	-17
CCCN1C2CCCC1CC(NC(=O)c1ccc(Br)cc1)C2 (stereo not given)	4731	2.6	9	7	10	6	-52
CCOC(=O)c1c(S(=O)(=O)NCCc2ccco2)c(C)n(C)c1C	5022	1.4	6	7	2	5	-25
Cc1ccc(S(=O)(=O)N2CCC(C(=O)NNC(=O)c3cccnc3)CC2)cc1	3227	0.8	-4	1	-9	-7	-3
Cc1ccc(S(=O)(=O)N2CCN(CC(=O)N/N=C\c3ccc(Cl)c([N+](=O)[O-])c3)CC2)cc1	2851	.	.	.	.	-9	-17
Cc1nc2ccc(S(=O)(=O)NCC(=O)N3CCN(c4ccccn4)CC3)cc2s1	3413	3.2	13	7	1	-1	0
CN(C)c1ccc(C=NNC(=O)CCc2c[nH]c3ccccc23)cc1	.	4.3	5	3	4	.	.
CC(=O)c1sc(N)c(C(=O)OC(C)C)c1C	2698	3.8	.	.	1	-2	1
CC(C)OCCCNC(=O)Cc1ccc(Br)cc1	4167	13	3	2	2	1	83*
C=CCN(C(=O)CNS(=O)(=O)c1ccccc1)C(C(=O)NCCOC)c1ccncc1 (stereo not given)	4315	0.6	.	.	5	4	0
Cc1ccccc1CCN(C(=O)Cn1nnc2ccccc21)C(C(=O)NCC1CCCO1)c1nc2ccccc2n1C (stereo not given)	2350	6.6	1	-4	14	-9	-16
COc1cc(C(C(=O)NC(C)(C)C)N(C(=O)CNC(=O)c2cccs2)c2ccc(C(C)C)cc2)cc(OC)c1OC (stereo not given)	5956	1.8	11	5	1	.	-25
O=C(NCC(=O)N(c1ccccc1)C(C(=O)NC1CCCC1)c1cccnc1)c1cccs1 (stereo not given)	6555	1.3	1	-4	2	8	-13

Later entries.
SMILES	Bead autofluor	Sa RN4220 lethal	Mtb hypoxia rep	Mtb hypoxia rep growth	Sa ugtP lethal	BJeLR viability	PrP UTR inh
Cn1cc(Cl)c(C(=O)Nc2nc3ccccc3s2)n1	5502	-0.4	-1	6	6	0	-66
O=C(NNC(=O)c1ccc(NC(=O)c2ccccc2)cc1)Nc1ccccc1	3358	-0.4	19	8	1	-4	-12
O=C(COc1ccccc1Cl)Nc1ccc2c(c1)OCCO2	3284	3.0	-11	7	-8	11	-49
Cn1c(O)c(C2=NN(C(=O)CCl)C(c3ccccc3)C2)c(=O)n(C)c1=O (stereo not given)	?	12	12	4	9	-3	-14
CCC1(c2ccc(F)cc2)NC(=O)N(CC(=O)NC2CC2)C1=O (stereo not given)	6705	4.3	8	-3	3	10	-5
Cc1cccc(C2CC(c3ccccc3)Nc3nc(N)nn32)c1 (stereo not given)	5886	2.8	.	.	8	-6	-23
COc1ccc(-c2cc(C(F)(F)F)nc(SCC(=O)Nc3sc4c(c3C#N)CCC4)n2)cc1	8021	2.4	0	3	62	-3	-19
Cc1cc(C=NNC(=O)c2ccncc2)c(C)n1-c1ccccc1	.	-3.0	.	.	5	.	.
CCCNC(=O)C1CC(c2ccccc2C(F)(F)F)=NO1 (stereo not given)	3543	7.3	2	-2	0	-9	3
COc1ccc(CCC(=O)NCCS(=O)(=O)N2CCN(c3ccccc3OC)CC2)cc1	5021	0.5	4	5	-1	5	-30
COc1cc(S(=O)(=O)N(Cc2ccco2)C2CCCC2)ccc1-n1cnnn1	10440	17	16	1	12	1	-19
COc1cc(-c2n[nH]c(=S)n2C(C)c2ccccc2)cc(OC)c1OC (stereo not given)	4517	11	22	5	2	10	-21
CC(C)c1ccc(NC2CCCN(C(=O)c3ccccc3-c3ncc[nH]3)C2)cc1 (stereo not given)	6443	3.3	5	0	-7	-8	-19
O=C(C1=CC(C2CC2)CC(OCCCCO)O1)N1CCN(Cc2ccc3c(c2)OCO3)CC1 (stereo not given)	.	6.1&4.5	-2&10	1&4	5&-7	.	.
COc1ccc(-c2nc(C#N)c(NCCc3ccccc3)o2)cc1OC	3569	-12	7	11	17	-3	-54
COc1ccc(C=NNC(=O)c2cccc3ccccc23)c(OC)c1OC	.	0.5	12	0	8	.	.
COc1ccc(S(=O)(=O)CC(O)CN2CCCC2=O)cc1 (stereo not given)	8549	-0.7	2	8	0	24	-52
CCOC(=O)c1c(O)cc(C)cc1Nc1ccccc1	4391	-3.3	-6	-13	25	-3	-20
COc1ccc2[nH]c(=O)c(CN(C(=O)c3cccnc3)c3cc(C)ccc3C)cc2c1	18114*	0.5	0	0	-4	-9	-7
O=C(NCCCCc1ccccc1)C1CCCC1	3013	0.4	12	17	12	-3	-10
Nc1nonc1-n1nnc(C(=O)N/N=C/c2ccncc2)c1CSc1ccccc1	4842	.	.	.	.	-1	-5
COc1ccc2ccc3c(c2c1)N=CC1(O3)N(C)c2ccccc2C1(C)C (stereo not given)	8709	-18	11	0	-9	-2	-13
Cc1sc2nc(CN(C(=O)NCc3ccccc3)C3CCCC3)[nH]c(=O)c2c1C	?	27	8	2	18	-4	0
O=c1ccn(CCc2c[nH]c3ccccc23)c2c1CCCC2	3432	0.6	-7	-5	-7	-6	4
Cc1sc(NC(=O)CSc2nnnn2C(C)C)c(C#N)c1C	4855	5.4	12	-2	5	-4	-11

Structures from the list above that have a nitro group on carbon, in the order listed:
SMILES	Bead autofluor	Sa RN4220 lethal	Mtb hypoxia rep	Mtb hypoxia rep growth	Sa ugtP lethal	BJeLR viability	PrP UTR inh
CN(CC(=O)Nc1cccc(F)c1)CC(=O)Nc1ccc(Cl)cc1[N+](=O)[O-]	3937	29	18	11	26	3	-24
Cc1ccc(S(=O)(=O)N2CCN(CC(=O)N/N=C\c3ccc(Cl)c([N+](=O)[O-])c3)CC2)cc1	2851	.	.	.	.	-9	-17

Additional structures
SMILES	Bead autofluor	Sa RN4220 lethal	Mtb hypoxia rep	Mtb hypoxia rep growth	Sa ugtP lethal	BJeLR viability	PrP UTR inh
Cc1ccc(S(=O)(=O)CCC(=O)Nc2nnc(CC(C)C)s2)cc1	.	4.1	7	3	6	5	-14
Clc1cccc(/C=N/Nc2nc(Cl)nc3ccccc23)c1	11351	.	.	.	.	-1	-62
C=CCN1C(=O)c2ccc(C(=O)OCC(=O)Nc3ccccc3OC)cc2C1=O	4524	4.9	7	-1	4	.	-13
COc1ncccc1-c1nnn(-c2ccccc2)n1	4235	13	4	2	3	6	-19
CCOC(=O)CSc1nc2sc3c(c2c(=O)[nH]1)CC(C)(CC)OC3 (stereo not given)	5256	-0.2	-12	0	-12	2	-18
COc1ccc(CCNC(=O)COC(=O)C2CCCCC2)cc1	2250	5.3	15	2	5	17	-2
COC(=O)c1c(SCC(=O)Nc2ccc(C)c(C)c2)nc(=O)[nH]c1C	5449	2.2	2	-1	-13	1	-16
CC(=O)Nc1ccc(NC(=O)c2ccc(CSc3ccccc3)o2)cc1	3936	5.1	11	5	16	-1	-36
O=C(O)c1ccc2c(=O)n3c(nc2c1)/C(=C/c1ccc(Cl)c(Cl)c1)CC3	3100	13	14	4	4	-1	-4
Cc1ccc(NC(=O)CN2CCc3cc4c(cc3C2)OCCCO4)cc1C	5981	-4.4	6	16	8	-3	3
COc1ccc(S(=O)(=O)N2CCOC2CNC(=O)C(=O)NCc2ccc3c(c2)OCO3)cc1 (stereo not given)	5566	-0.6	-4	2	-1	-4	-17
NC(=O)CC[C@H](NC(=O)c1ccc(F)cc1)C(=O)OCC(=O)Nc1ccc(N2CCOCC2)cc1	2812	0.6	-6	-9	1	1	-17
CN1CCN(CC(=O)N/N=C/c2ccc(F)c(F)c2)CC1	2108	.	.	.	.	-5	-6
Cc1ccc(S(=O)(=O)N2CCC(C(=O)OCCOc3cccc(C)c3)CC2)cc1	7979	3.2	-2	5	8	.	-18
Cc1c(CNC2CCCC(C)C2C)c(C(=O)O)c(C)n1Cc1ccccc1 (stereo not given)	2511	3.4	3	14	3	-4	-7
O=C(CCl)Nc1cn(-c2ccccc2)nc1-c1ccccc1	4221	-1.3	.	.	-10	1	-20
CCCCCCC[C@H](N)[C@H](O)C(=O)N(C)[C@@H](CCS(C)=O)C(=O)N[C@@H](Cc1ccc(O)cc1)C(=O)N[C@@H](Cc1ccc(O)cc1)C(=O)O (stereo not given in full)	2787	.	.	.	.	-7	0
CCN(CC)CC(C)OC(=O)COc1ccc(OC)cc1 (stereo not given)	5788	2.1	4	11	-3	-11	-22
Cn1c(O)c(/C=N/Nc2ccccc2)c(=O)n(C)c1=O	2085	4.8	-2	-7	8	-4	-23
Nc1[nH]c(N=NC(=O)c2ccc(F)cc2)c2ccccc12	7161	13	4	2	3	-3	-87
COC(=O)NN=Cc1cc(Cl)c(OCc2ccc(F)cc2)c(OC)c1	.	3.0	2	-3	-8	.	.
CCOC(=O)c1ccc2ncc(C(=O)OCC)c(NCCN3CCOCC3)c2c1	4029	4.6	-8	2	14	26	-8
CN(C)CC(C)(C)CNCc1cc(=O)oc2ccc3ccccc3c12	3657	-2.4	-2	0	11	-6	-3
O=C(Nc1ccccc1)Nc1ccccc1C(=O)NCc1ccco1	10047	5.9	5	-6	0	-5	-26
CC(C)=CC(=O)Nc1ccc(Br)cc1	9547	-2.4	3	-3	17	-5	-140

Next part
SMILES	Bead autofluor	Sa RN4220 lethal	Mtb hypoxia rep	Mtb hypoxia rep growth	Sa ugtP lethal	BJeLR viability	PrP UTR inh
O=C(CSc1cccc[n+]1[O-])Nc1cc(S(=O)(=O)N2CCOCC2)ccc1N1CCOCC1	2055	2.5	3	1	0	-2	-28
O=C(N/N=C/C1CC2CCC1C2)c1ccc2c(c1)OCO2 (stereo not given)	2682	.	.	.	.	6	-25
O=C(CNC(=O)c1ccccc1Cl)NCCc1cccs1	3031	-0.3	8	4	7	.	-16
CC(C)(C)c1nc(S(=O)(=O)c2ccc(Cl)cc2)c(N2CCOCC2)o1	?	1.7	5	6	4	-1	-10
COc1ccccc1C(C)NC(=O)Cc1ccsc1 (stereo not given)	4887	-0.7	1	2	2	8	-14
CSc1nc(=NC(C)=O)ss1	4018	5.4	8	9	15	-8	-9
COc1ccc2cc(CN(Cc3cccs3)Cc3nnnn3Cc3ccccc3)c(=O)[nH]c2c1	24337*	0.3	1	1	-10	-1	5
COc1cccc(-c2nnc(SCc3nc4ccccc4[nH]3)n2N)c1	2716	11	0	2	-7	0	-18
Cn1c(N)c(C(=O)COC(=O)/C=C/c2ccccc2Cl)c(=O)n(C)c1=O	3467	9.7	6	-1	-1	.	-30
CCNC(=O)NC(=O)C(C)N1C(=O)NC(c2ccccc2)(c2ccccc2)C1=O (stereo not given)	3638	4.5	-1	5	6	-3	-24
